Screening data: PubChem BioAssay, Broad Institute
Tgondii IFNg – T. gondii growth inhibition with IFN-gamma, primary screen, cell-based; Toxoplasma gondii growth in IFN-gamma-treated host cells; stronger effect = lower value; reference of the scale not given here; activity change, negative = inhibition, %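 (about 20 µM by stock and volumes)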; 69,000 compounds, 3.8% hits; AID 1259416, 2018;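 active means below -70%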;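 further: host cells are HeLa cells infected with Toxoplasma gondii; parasite growth read as luciferase light; one replicate is shown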
The depositor's hits bear a star; i = inactive; & = joins results of further samples. Only part of the results is shown; rates above refer to the full screens.

SMILES	Tgondii IFNg
COc1cccc(C(NC(=O)c2cccnc2C)c2nccn2C)c1OC (stereo not given)	-8.4
CCS(=O)(=O)N1CCC2(CC(=O)N(c3ccc4c(c3)OCO4)C2)C1 (stereo not given)	124.6
COc1ccc(NC(=O)Nc2ccc(-c3nc(-c4ccc(C)cc4)co3)cc2)cc1Cl	14.9
CNC(=O)[C@@H]1C[C@H](N)CN1S(=O)(=O)N1CCCCC1	-40.6
Cn1ccnc1-c1ccc(Oc2ccc(CN3CCCC3)cc2)nn1	74.3
CCOc1ccc(NC(=O)N2CCC3(CC2)NC(=O)c2cc(Cl)ccc2N3C)cc1	53.4
Cc1ccccc1S(=O)(=O)N1C[C@H](O)COC[C@H]2O[C@@H](CC(=O)N3CCCCC3)CC[C@@H]21	11.4
Cc1nnn2c1COCC(CNCc1cccc(C#N)c1)C2 (stereo not given)	-2.7
Cc1cc2cc(C(=O)NCCNc3cccnc3)ccc2o1	3.1
COCC(=O)N1[C@@H](CO)[C@@H](c2ccccc2)C12CN(Cc1cc(F)ccc1F)C2	-59.0
CCOc1ccc(NC(=O)Nc2ccc(-c3nc(-c4cccc(Br)c4)co3)cc2)cc1	1.4
COc1cc(C(=O)Nc2ccc3c(c2)N(C)CCC3)c(-n2cnnn2)cc1OC	11.7
Cc1cc(-c2nn(-c3ccccc3F)cc2CN2CCC(O)CC2)c(C)s1	-5.7
COCCCN1CCc2nc(SCc3nc(-c4ccccc4)oc3C)[nH]c(=O)c2C1	6.1
COc1ccc(Nc2cc(C)nc3ccc(C)cc23)cc1	-97.3*
c1ccc(C2c3[nH]c4ccccc4c3CCN2Cc2cn[nH]c2C2CCCCC2)nc1 (stereo not given)	-10.4
CO[C@@H](CN(C)Cc1nccs1)[C@H](C)CN([C@@H](C)CO)S(=O)(=O)c1ccc(F)cc1	-52.6
COc1cccc(S(=O)(=O)N2C[C@H](O)COC[C@@H]3O[C@H](CC(=O)NCCCN4CCOCC4)CC[C@H]32)c1	-15.9
CS(=O)(=O)CC(=O)N1C[C@H]2CCC[C@]2(COc2cccnc2)C1	-4.7
CN(C)CCOCc1nnn2c1CN(C(=O)c1ccsc1)CCC2	6.0
O=C(c1ccc(-c2cn[nH]c2)nc1)N1CCC(N2CCOCC2)CC1	-3.1
CCCCCCCNS(=O)(=O)c1cccc2c(Cl)cccc12	-4.0&21.1
CC(=O)N1CCCC(CCCc2ccncc2)(C(=O)O)C1 (stereo not given)	1.3
O=C(Nc1ccc(F)cc1)c1c(O)c2cccnc2n(-c2cccc(F)c2)c1=O	60.4

In the list so far, these contain a halogen.
SMILES	Tgondii IFNg
COc1ccc(NC(=O)Nc2ccc(-c3nc(-c4ccc(C)cc4)co3)cc2)cc1Cl	14.9
CCOc1ccc(NC(=O)N2CCC3(CC2)NC(=O)c2cc(Cl)ccc2N3C)cc1	53.4
COCC(=O)N1[C@@H](CO)[C@@H](c2ccccc2)C12CN(Cc1cc(F)ccc1F)C2	-59.0
CCOc1ccc(NC(=O)Nc2ccc(-c3nc(-c4cccc(Br)c4)co3)cc2)cc1	1.4
Cc1cc(-c2nn(-c3ccccc3F)cc2CN2CCC(O)CC2)c(C)s1	-5.7
CO[C@@H](CN(C)Cc1nccs1)[C@H](C)CN([C@@H](C)CO)S(=O)(=O)c1ccc(F)cc1	-52.6
CCCCCCCNS(=O)(=O)c1cccc2c(Cl)cccc12	-4.0&21.1
O=C(Nc1ccc(F)cc1)c1c(O)c2cccnc2n(-c2cccc(F)c2)c1=O	60.4

Later entries.
SMILES	Tgondii IFNg
CCc1cc(-c2nccn2Cc2cc(C)no2)on1	2.0
Cn1c(-c2ccccc2)cnc1NC(=O)CC1NC(=O)N(C2CCCCC2)C1=O (stereo not given)	11.3
COc1cccc(S(=O)(=O)N2C[C@H](O)COC[C@H]3O[C@H](CC(=O)N4CCN(c5ccccc5)CC4)CC[C@@H]32)c1	7.9
O=C1CNC(=S)N1Cc1ccccn1	-25.9
O=C(C[C@H]1C=C[C@@H](NC(=O)CCN2CCCCC2)[C@H](CO)O1)Nc1nccs1	-12.2
Cc1ccccc1NC(=O)c1nnn(Cc2nc(-c3ccc(OC(C)C)cc3)oc2C)c1C	-39.4
O=C(c1csc(-c2ccc(N3CCCC3)nc2)n1)N1CCN(c2ccccn2)CC1	-7.8
O=C(c1ccco1)N1CC[C@@H](N2CCOCC2)[C@H]1Cc1cccnc1	-1.8
Cc1oc(-c2cccs2)nc1CN1CCCC(c2ccccc2)C1 (stereo not given)	0.1
Cc1c(C(C)NC(=O)c2ccc(Cl)c(NCc3ccccn3)c2)cnn1C (stereo not given)	-0.9
Cc1cnc(N2CC[C@@H]3[C@H]2CCN3S(=O)(=O)C2CC2)nc1	-20.6
Cc1cnc(N2CCc3onc(COc4cccnc4)c3C2)nc1	-2.7
O[C@H]1C[C@@H]2CN(c3nccc(CCC(F)(F)F)n3)C[C@@H]2C[C@@H]1O	36.9
Fc1cnc(N2CCC3(COCc4cnc(N5CCOCC5)nc43)C2)nc1 (stereo not given)	11.3
Cc1oc(-c2ccccc2)nc1Cn1nnc(-c2nc(-c3ccc(OC(C)C)cc3)no2)c1C	-79.9*
N#CCCSc1ccccc1NC(=O)C(c1ccccc1)C1CCCC1 (stereo not given)	-4.3
COc1cc2c(cc1OC)CC(=O)OC2	30.1
Cc1ccc(NC(=O)C(C)NC(=O)CN2CCOC2=O)c(F)c1 (stereo not given)	1.7
O=S(=O)(CCN1CCC(n2cccc2)CC1)c1ccc(F)cc1	-57.3
CO[C@@H]1CCN(C(=O)c2cnoc2)[C@H]2CN(Cc3cccnc3)C[C@@H]12	9.0
CCc1ccccc1NC(=O)C(=O)N1CCCn2nc(C(=O)N3CCCC3)cc2C1	55.4
CCOc1cc([C@@H](CS(C)(=O)=O)N2C(=O)c3cccc(NC(C)=O)c3C2=O)ccc1OC	12.9
O=C1CC(c2ccccc2)CN1Cc1nc(Cc2ccccc2)n[nH]1 (stereo not given)	-15.3
Cc1cccc(NC(=O)C(=O)NCCc2csc(-c3ccc(C(F)(F)F)cc3)n2)c1C	21.3
O=S(=O)(Cc1ccc(Cl)c(Cl)c1)NCCCn1ccnc1	54.2
O=C(CCNc1n[nH]c(=O)[nH]c1=O)NCc1ccco1	-6.1
CCOc1cccc(C2c3[nH]c4ccccc4c3CCN2C(=O)CCC2CCCC2)c1 (stereo not given)	125.1
Cc1ccc(CN(Cc2ccncc2)C2CC(C)(C)NC(C)(C)C2)o1	26.4
c1cc(-c2ccco2)cc(-c2nccn2CCN2CCOCC2)c1	8.5
O=C(Nc1cccc(C(F)(F)F)c1)N1CCSCC1	-28.8
Cc1cc(C(=O)N2CCC3OCCN(CCN(C)C)C3CC2)c(C)o1 (stereo not given)	271.3
Cc1cnn(Cc2nc(-c3ccc(NC(=O)C4CCCC4)cc3)oc2C)c1	43.7
CCC(=O)Nc1ccc(OCC(=O)N(C)Cc2csc(C)n2)cc1	-55.3
C=CCn1cc(CN2CCN(C)C(=O)C2CCCC)c(C)n1 (stereo not given)	8.5
CC(=O)N1CCO[C@H]2CCN(C(=O)c3ccn(C)n3)C[C@H]21	3.9
CCNC(=O)c1cc2c(c(-c3cccc(-c4ccccc4F)c3)n1)[C@@H](CCO)N(C(=O)CC1CC1)C2	-61.4
O=C(O)c1ccc2c(c1)n(CC1CCCO1)c(=O)n2CC1CC1 (stereo not given)	-7.7
N#CCN1CCC2(CC1)OCCN(Cc1cccnc1)c1ccccc12	-20.3
COc1c(C)cnc(CN(C)C(=O)c2ccc(-n3cnnc3)cc2)c1C	5.0
COc1ccccc1CNC(=O)c1ccc(C)c(NC(=O)C2CC2)c1	112.1
CC(C)CN1CC[C@H]2[C@@H]1CCN2C(=O)c1ccc[nH]1	-16.3
COc1ccc(Cl)cc1NC(=O)CN1CCC2(CC1)N=C(c1cccc(F)c1)C(=O)N2	63.4
CCc1nnc(NC(=O)C2CC(=O)N(CCc3c[nH]c4ccc(Cl)cc34)C2)s1 (stereo not given)	75.6
O=C(C[C@@H]1CC[C@@H]2[C@H](COC[C@@H](O)CN2CCC(F)(F)F)O1)NCC1CC1	9.5
CN(C)CC1(O)CCCN(C(=O)c2cnc3c(c2)ncn3C)C1 (stereo not given)	-1.6
Cc1nc(OCC(=O)Nc2cccc(C)c2C)c2ccccc2n1	-16.2
COc1ccc(-c2ccc3c(c2)[C@@H]2[C@@H](CCN2C(=O)c2cccc(F)c2)[C@H](CO)N3)cc1	-53.5
Cn1cc(-c2cc3n(n2)CCC(=O)N3CC(=O)NCCCN2CCCC2=O)c2ccccc21	50.6
CN(C)C1CCN(C(=O)Cc2ccc(F)cc2)C(C(=O)O)C1 (stereo not given)	-7.1
CC(Sc1nc(=O)cc(N)n1-c1ccccc1)C(=O)Nc1cccc2ccccc12 (stereo not given)	-12.0
Cc1ccc2[nH]cc(-c3cnc(N)cn3)c2c1	81.5
CC(C)N1CCC(N2CCc3c(c(C(=O)N4CCOCC4)nn3CCc3ccccc3)C2)CC1	-41.5
CC(C)C(=O)Nc1cccnc1-c1cccc2c1CCNC2	-1.7
Cc1ncc(C)c(-c2cccc3ccsc23)n1	6.4
CC(C)(C)N(CCNS(=O)(=O)c1ccc2[nH]c(=O)ccc2c1)Cc1ccco1	i
Cc1ccc(NC(=O)Cn2c(=O)cc(C(=O)N3CCCC3)c3ccccc32)cc1	10.3
Cc1ccccc1C(NC(=O)c1cn[nH]n1)c1ccncc1 (stereo not given)	-1.6
O=C(c1cccc(F)c1)N1CCCCN2[C@H](CO)[C@H](c3ccc(C#CC4(O)CCCC4)cc3)[C@@H]2C1	-6.5
FC(F)(F)C(F)(F)C(F)(F)N(C(F)(F)C(F)(F)C(F)(F)F)C(F)(F)C(F)(F)C(F)(F)F	4.1
CCCCN(C(=O)c1ccc(Br)cc1)C1(C(=O)NCc2ccccc2)CCN(C(C)=O)CC1	-25.4

Carrying on.
SMILES	Tgondii IFNg
CC(C)N1CCC(CNC(=O)CCC2CCCC2)C1 (stereo not given)	-4.3
C/C=C/c1ccc(C2[C@H]3CNC[C@@H]2N3S(=O)(=O)c2cccc(F)c2)cc1 (stereo not given in full)	-35.1&-0.6
COCCN(Cc1cccs1)CC1CCOC1 (stereo not given)	52.0
Cc1ccc(C)c(S(=O)(=O)N2CCC(c3nc(C(=O)N(C)C)c(C)o3)CC2)c1	-22.8
S=C(NCCc1csc2ccccc12)Nc1ccc(Cl)cc1	52.4
Cn1cc(NC(=O)CN2CCCC(c3nc4ccccc4n3C)C2)cn1 (stereo not given)	3.2
CCS(=O)(=O)N1CCN(c2nnc(-c3cccs3)c(-c3cccs3)n2)CC1	173.9
COc1cc(OC)c(-c2c(OC)cc(OC)cc2OC)c(OC)c1	11.5
C[C@@H](NC(=O)C[C@@H]1CC[C@H]2[C@H](COc3ccc(NS(=O)(=O)c4ccc(Cl)cc4)cc3C(=O)N2C)O1)c1ccccc1	-64.0
O=C(N1CCCC1)N1CCC2(CCN(Cc3cccc(F)c3)C2=O)C1 (stereo not given)	3.8
CCOc1ccc(-c2nc(CN3CCN(C(=O)Nc4ccc(C)cc4)CC3)c(C)o2)cc1	-1.9
COc1cc2c(cc1C1CC(=O)Nc3c1c(C)nn3C)OCCO2 (stereo not given)	11.1
CCOC(=O)c1nn(CC)c2c1CN(C(=O)C1CC=CCC1)CC2 (stereo not given)	-27.3
CCOC(=O)c1ccc(NC(=O)Cn2ncc3c(N4CCN(c5ccccc5)CC4)ncnc32)cc1	54.2
O=C(NC(Cn1cccn1)c1ccccc1)c1cc2n(n1)CCNC2 (stereo not given)	-5.9
O=C(c1[nH]ncc1Cl)N1CCCC(c2n[nH]c(=O)n2-c2ccccc2)C1 (stereo not given)	3.2
COC(=O)CN(c1ccccn1)S(=O)(=O)c1ccccc1	-23.2
CC(O)(C(=O)NCc1cccnc1-n1cnc2ccccc21)c1ccccc1 (stereo not given)	-38.8
COc1ccc(NC(=O)N2C[C@@H]3[C@H](c4ccccc42)[C@H](CO)N3Cc2ccccn2)cc1	14.0
COc1cccc(NC(=O)N2CCN(Cc3nc(-c4cccc(Cl)c4)oc3C)CC2)c1	-50.7
CCOc1ccc(NC(=O)c2nc(Nc3ccccc3)c3ccccc3n2)cc1	-38.3
COCc1nnn2c1CN(Cc1ccc(C)s1)CCC2	-49.3
CC(=O)Nc1ccc(C(=O)N2CCC(C(=O)c3cnn4c(C)cc(C)nc34)CC2)cc1	-5.9
CC(C)(O)C#Cc1cccc(C(=O)NCc2csc(N)n2)c1	-52.9

Reformatted: entries from further up.
COc1ccc(NC(=O)N2C[C@@H]3[C@H](c4ccccc42)[C@H](CO)N3Cc2ccccn2)cc1
  Tgondii IFNg = 14.0

COc1cccc(NC(=O)N2CCN(Cc3nc(-c4cccc(Cl)c4)oc3C)CC2)c1
  Tgondii IFNg = -50.7

CCOc1ccc(NC(=O)c2nc(Nc3ccccc3)c3ccccc3n2)cc1
  Tgondii IFNg = -38.3

COCc1nnn2c1CN(Cc1ccc(C)s1)CCC2
  Tgondii IFNg = -49.3

Next results follow.
SMILES	Tgondii IFNg
COc1ccc(-n2ccnc2-c2c(C)n(C)n(-c3ccccc3)c2=O)cn1	-53.2
Cn1cccc1C(=O)N1C[C@@H](c2ccccc2)[C@@]2(CCNC2=O)C1	1.9
Cc1ccc2nc(C3CCCCN3C(=O)c3ccncc3)[nH]c2c1 (stereo not given)	-41.7
O=C1NN=C(CC(=O)N2CC[C@@H](c3ccccc3)[C@H](O)C2)C2C=CC=CC12 (stereo not given in full)	-6.3
CCc1ccc(CN2CC[C@@H]3C[C@H](C(=O)Nc4cnccn4)O[C@@H]3C2)o1	7.7
CC(C)CN1C(=O)N(C)C(=O)C12CCN(Cc1cn(-c3ccccc3)nc1-c1ccccc1)CC2	-27.3
CCn1ncnc1CN1CCC(CNC(C)=O)CC1	1.8
